Bioassay records as filed in PubChem.
Beta cell apopt: beta cell apoptosis inhibition. AID 435005. protection from apoptosis, % (no concentration beside the values). 0.8% of 300,000 active. INS-1E cytokine-induced death, ATP luminescence, 48 h; percent of positive-control rescue, neutral wells zero;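 active = all replicates at 75% or more, or half of them and the mean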;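 also: 0% = cytokine-treated negative control wells and 100% = positive control rescue; higher means more ATP so stronger rescue from cytokine killing; wells of about 40 µL received 100 nL stock; the first replicate is given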
Ecoli growth: inhibitors of Escherichia coli growth; OD600, 23 h; hits give low values; OD600 absorbance (no concentration beside the values); 0.21% of 330,000 active;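 active = OD600 absorbance below the run mean of sample wells minus 3.6 SD, in any replicate, cut at about 0.56 in these data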;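 also: stock transfer was 300 nL into about 60 µL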
UCH37 inh: inhibitors of human deubiquitinating enzyme UCH37; inhibition, % (test concentration not listed); 0.33% of 330,000 active; purified proteasome/UCH37, Ub-AMC cleavage fluorescence; AID 588478;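 active = mean of two replicates above 20%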;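 also: 0% = compound-free wells with enzyme and 100% = wells lacking proteasome; stock transfer was 100 nL into about 20 µL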
Target sequence (Q9Y5K5 whole entry, looked up): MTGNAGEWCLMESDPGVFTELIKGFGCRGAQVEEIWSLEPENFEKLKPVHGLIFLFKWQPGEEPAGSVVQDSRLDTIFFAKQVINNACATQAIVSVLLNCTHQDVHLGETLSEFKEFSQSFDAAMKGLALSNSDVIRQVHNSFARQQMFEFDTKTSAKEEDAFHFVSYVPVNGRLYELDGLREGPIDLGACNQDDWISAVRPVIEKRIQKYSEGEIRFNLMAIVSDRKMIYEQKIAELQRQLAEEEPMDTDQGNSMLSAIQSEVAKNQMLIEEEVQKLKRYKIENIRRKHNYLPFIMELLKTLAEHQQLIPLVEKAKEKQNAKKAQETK
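Material: Human UCH37 enzyme supplied as purified proteasome complex | Schedule: 30 min compound-proteasome preincubation then 25 min substrate reaction, room temperature | Detection: AMC fluorescence from Ub-AMC cleavage, excitation 355 nm, emission 460 nm | Benchmarks: Wells without proteasome as full block, compound-free enzyme plus substrate as uninhibited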
MLL AF4-AF9 inh: MLL-AF4/AF9 protein interaction inhibition. P42568. 0.47% of 350,000 active. AID 651704. inhibition, % at 10 µM. AlphaScreen, biotin-AF4 peptide binding to FLAG-AF9;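 active = every replicate reaching a set inhibition limit, whatever the replicate mean, cut at about 25% in these data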;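 also: 0% = plate neutral control median and 100% = total signal loss; the record names both 10 and 1 µM as test concentration; the first replicate is given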
Target sequence (P42568 whole entry, looked up): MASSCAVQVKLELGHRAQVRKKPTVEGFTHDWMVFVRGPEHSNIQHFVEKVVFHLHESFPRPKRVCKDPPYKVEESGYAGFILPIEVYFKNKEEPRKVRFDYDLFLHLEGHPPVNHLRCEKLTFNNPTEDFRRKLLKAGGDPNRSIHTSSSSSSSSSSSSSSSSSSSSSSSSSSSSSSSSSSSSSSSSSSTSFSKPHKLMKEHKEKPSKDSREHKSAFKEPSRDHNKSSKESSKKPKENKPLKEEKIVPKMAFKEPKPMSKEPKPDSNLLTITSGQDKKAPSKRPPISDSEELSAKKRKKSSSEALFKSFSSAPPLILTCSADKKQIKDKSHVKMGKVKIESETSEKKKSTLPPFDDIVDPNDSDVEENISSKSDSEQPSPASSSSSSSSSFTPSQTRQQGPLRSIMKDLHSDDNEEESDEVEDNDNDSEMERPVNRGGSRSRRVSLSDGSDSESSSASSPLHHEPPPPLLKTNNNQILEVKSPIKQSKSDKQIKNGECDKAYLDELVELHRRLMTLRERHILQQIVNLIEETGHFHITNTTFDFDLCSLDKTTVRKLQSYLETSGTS
A1 inh: inhibitors of the anti-apoptotic protein A1, read as caspase activation. 0.066% of 330,000 active. MEF A1-2A-BIM cells, Caspase-Glo 3/7 luminescence, 3 h; percent of clofoctol response, vehicle zero. caspase activation, % (concentration not given with the values);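 active = over half of replicate activation scores above 10%, or exactly half above 10 with the replicate mean above 10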;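 also: wells of about 30 µL received 50 nL stock; many hits fall short of the cut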
T cruzi repl: blocks replication of Trypanosoma cruzi. T. cruzi beta-gal in NIH3T3, luminescence, 90 h. inhibition, % (test concentration not listed). 1.4% of 300,000 active. AID 1885;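 active = mean inhibition across valid replicates above about 55%, limit read from the data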;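 also: signal also drops with host cell toxicity which is not excluded here; 0% = plate median of DMSO wells and 100% = zero luminescence signal; higher percent means less beta-gal luminescence so fewer parasites; stock transfer was 50 nL into about 50 µL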
rRNA inh HTS: inhibits bacterial ribosomal RNA function over humanized ribosomes | GFP signal change (wild-type ribosome), % (no concentration beside the values) | AID 720706 | 1.6% of 350,000 active | E. coli WT GFP vs humanized-ribosome RFP mutants, fluorescence, 24 h; hits give low values; DMSO median 0, no signal -100;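 active = significant combined selectivity score with lowered wild-type GFP, culture density cut under 30%, mutant RFP and density less affected; inactive = any of these conditions unmet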; also: one replicate is shown; some compounds called inactive have numbers as strong as hits
FGF22 binding: binders of recombinant human FGF22 by thermal shift. SYPRO orange fluorescence; percent of sucrose octasulfate shift, DMSO zero. 1.5% of 340,000 active. calls only at 9.99 µM;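 active = melting point raised past a set limit in the mean and every replicate; three in four hits are not shown here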
Target sequence (Q9HCT0 whole entry, looked up): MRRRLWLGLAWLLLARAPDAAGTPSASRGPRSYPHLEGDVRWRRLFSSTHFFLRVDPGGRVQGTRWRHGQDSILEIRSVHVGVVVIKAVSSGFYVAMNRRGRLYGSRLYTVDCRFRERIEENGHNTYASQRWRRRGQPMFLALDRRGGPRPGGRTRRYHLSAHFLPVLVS
rRNA inh HTS OD600: also measured in rRNA inh HTS; calls as there; OD600 change, %; measured here: OD600 growth;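 optical density of the mix in the first replicate; 0 = DMSO median and -100 = no signal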
rRNA inh HTS RFP: also measured in rRNA inh HTS; calls as there; RFP signal change, %; measured here: RFP humanized mutant strains;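 first replicate; 0 = DMSO median and -100 = no signal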
An asterisk follows results filed as active; i = inactive; nt = not tested or not shown; + = active, no number. Only part of the results is shown; the hit share may differ from the screen's.

SMILES	Beta cell apopt	Ecoli growth	UCH37 inh	MLL AF4-AF9 inh	A1 inh	T cruzi repl	rRNA inh HTS	rRNA inh HTS OD600	rRNA inh HTS RFP	FGF22 binding
Cc1ccc2c(c1)[C@H]1[C@H](CO2)[C@H](c2ccccc2)[C@]2(C)C(=O)Nc3ccccc3C(=O)N12	15	nt	0.3	1.2	-0.4	nt	-4	0	7.5	i
O=C(Cc1cccc2ccccc12)N1CCCc2ccccc21	-7	0.7	6.0	nt	-0.3	11	nt	nt	nt	nt
COC(=O)c1ccc(NC(=O)C(=O)N2CCCC2)cc1	-9	0.67	1.6	nt	-1.4	-8	nt	nt	nt	nt
CC(C)Cc1ccc(CN2CCCC(NC(=O)CCN3CCOCC3)C2)cc1 (centres undefined)	3	0.69	-2.2	5.9	-0.2	49	7	14	-3.4	i
CCOC(=O)C1CCCN(C(=O)C2CCN(S(=O)(=O)N3CCC4(CC3)OCCO4)CC2)C1 (centres undefined)	2	0.72	0.9	-3.5	-0.2	7	18	2	1.4	i
CCCn1nnc2sc3c(c2c1=O)CCC(C)C3 (centres undefined)	5	0.7	-2.8	nt	-0.6	-2	nt	nt	nt	nt
CC(C)(C)OC(=O)C[C@H]1C/C=C\C[C@H](CC(=O)N[C@H](CO)Cc2ccccc2)C(=O)N2CCC[C@@H]2COC1=O	-3	nt	0.0	0.2	0.1	nt	-4	-2	6.1	i
Cc1cc(C)n(-c2nc3ccccc3c3nc(C)nn23)n1	1	0.69	-0.5	0.3	-1.0	-7	7	3	0.3	i
O=C(CNCc1ccco1)Nc1ccccc1-n1cccc1	-8	0.69	3.7	4.7	-0.3	-10	3	6	-0.3	i
O=C(c1cccnc1)N1c2ccccc2Sc2ccccc21	-1	0.69	1.4	2.7	0.7	27	-27	-31	-5.9	i

Part of the list above, with two lines to a compound.
Below each SMILES – Beta cell apopt | Ecoli growth | UCH37 inh | MLL AF4-AF9 inh | A1 inh | T cruzi repl | rRNA inh HTS | rRNA inh HTS OD600 | rRNA inh HTS RFP | FGF22 binding
> CCOC(=O)C1CCCN(C(=O)C2CCN(S(=O)(=O)N3CCC4(CC3)OCCO4)CC2)C1 (centres undefined)
  2 | 0.72 | 0.9 | -3.5 | -0.2 | 7 | 18 | 2 | 1.4 | i
> CCCn1nnc2sc3c(c2c1=O)CCC(C)C3 (centres undefined)
  5 | 0.7 | -2.8 | nt | -0.6 | -2 | nt | nt | nt | nt

(next part)
SMILES	Beta cell apopt	Ecoli growth	UCH37 inh	MLL AF4-AF9 inh	A1 inh	T cruzi repl	rRNA inh HTS	rRNA inh HTS OD600	rRNA inh HTS RFP	FGF22 binding
O=C(NNC(=O)c1ccc(-n2cncn2)c([N+](=O)[O-])c1)c1ccccc1	0	0.71	2.7	-0.1	-0.6	nt	nt	nt	nt	i
COC(=O)NNC(=O)c1ccccc1OC	-9	0.72	4.1	-0.3	-0.3	-1	10	7	-1.7	i
CCC(=O)OCCNc1nc(-c2ccccc2)nc2ccccc12	0	0.69	1.1	-6.3	-0.1	6	-31	-51	-1.6	i
Cc1cc(C2N=C(N)Nc3nc4ccccc4n32)c(C)n1-c1ccccc1Cl (centres undefined)	-8	0.67	3.9	nt	-0.8	51	nt	nt	nt	nt
CCOC(=O)C(C(=O)OCC)C(Nc1ccc(Br)cc1)c1ccccc1 (centres undefined)	-6	0.71	5.4	nt	2.2	-40	nt	nt	nt	nt
Cc1ccc(OCC(=O)NCCNC(=O)c2cccnc2)cc1C	-2	0.71	3.4	0.1	0.0	-15	2	8	-2.1	nt
CCOC(=O)c1sc(NC(=O)c2ccc(S(=O)(=O)N3CCCCC3)cc2)nc1-c1ccccc1	5	0.68	-18	nt	0.7	-5	nt	nt	nt	nt
CC(=O)c1cccc(NC(=O)CN(C)Cc2ccc(OC(F)F)cc2)c1	-1	0.65	1.2	-5.8	-0.9	11	0	-3	-4.1	i
Cc1ccccc1C(=O)Nc1ccnn1C1CCN(Cc2ccccn2)CC1	-6	0.69	-1.9	-0.1	0.2	-14	5	8	-2.9	i
COc1ccc(N2CCN(Cc3nc(N)nc(Nc4ccc(C)c(Cl)c4)n3)CC2)cc1	4	0.68	4.1	nt	0.3	-15	nt	nt	nt	nt
Cc1ccc(C(=O)N/C(=C\c2sccc2C)C(=O)NCc2ccncc2)cc1	-1	0.63	6.5	nt	-0.7	16	nt	nt	nt	nt
CC(=O)Nc1ccc(S(=O)(=O)N2CCN=C2SCc2cccnc2)cc1	-13	0.67	5.9	-0.1	-0.3	-3	nt	nt	nt	i
COc1ccc(S(=O)(=O)N2CCN(C)CC2)c2ccccc12	-3	0.74	5.7	-1.6	-0.3	-15	3	-1	-1.2	i
O=C(CN1CCCCC1)NNC(=O)c1cccc(Br)c1	-3	0.66	2.5	-4.6	-0.4	-7	-6	9	-4.3	i
Cc1ccccc1NC(=O)c1c(C)[nH]c(=S)c(C#N)c1-c1ccco1	-2	nt	nt	-5.9	-0.6	-14	18	8	24	i
O=C(c1cc(Br)ccc1Cl)N1CCCC1	2	nt	nt	-3.3	-1.0	16	15	9	2.6	i
C=CCn1c(COc2ccc(CC)cc2)nnc1SCC(=O)NC1CCS(=O)(=O)C1 (centres undefined)	1	0.75	3.3	nt	-1.3	-2	nt	nt	nt	nt
Cc1cc(C(=O)NC2CCCc3c2cnn3-c2cc(F)cc(F)c2)nn1C (centres undefined)	-2	0.68	1.2	-0.3	0.4	-7	-4	-6	-0.3	i
Cc1cc(Oc2ccc(Br)cc2)nc(SCC(=O)c2ccccc2)n1	-1	0.7	5.3	nt	1.4	36	nt	nt	nt	nt
COc1ccc(CN2CCN(Cc3cccn3-c3ncccn3)CC2CCO)c(C)c1C (centres undefined)	6	0.68	-0.5	7.2	0.6	28	6	-12	6.8	i
CC(=O)c1cccc(-n2nnnc2SCC(=O)NNC(=O)C(C)C)c1	-12	0.66	-1.6	-0.9	0.7	-11	12	12	1.4	i
COc1ccc(CNC(=O)COC(=O)C2=COCCO2)cc1	-5	0.72	5.1	nt	-0.3	-19	nt	nt	nt	nt
COC(=O)c1c(C)oc2ccc(N(C(=O)c3ccncc3)S(=O)(=O)c3ccccc3)cc12	nt	0.82	5.7	nt	0.3	-26	nt	nt	nt	nt
CCSc1nnc(-c2c[nH]c3ccccc23)o1	-8	0.62	-1.5	nt	-3.9	-1	nt	nt	nt	nt
O=C(COC(=O)/C=C/c1cccc(F)c1)Nc1ccc2[nH]c(=O)[nH]c2c1	nt	0.68	4.6	-0.1	-0.1	-7	3	1	5.7	i
CC(C)(c1cc(Br)c(O)c(Br)c1)c1cc(Br)c(O)c(Br)c1	9	nt	nt	nt	0.0	nt	-57	-83	-17	+
CCc1ccc(CN2CCN(C(=O)c3ccco3)CC2)cc1	2	0.64	2.4	-13	0.2	4	1	0	-1.9	i
Cc1nc2c(C(=O)NCCC3=CCCCC3)c[nH]n2c(=O)c1Cl	-11	0.65	-3.8	nt	0.0	-6	nt	nt	nt	nt
Cc1cc(C)n2nc(SCC(=O)N(CC(C)C)c3c(N)n(CC(C)C)c(=O)[nH]c3=O)nc2n1	-1	0.72	-2.4	1.0	0.3	-19	9	5	0.3	i
Cc1ccc(C(c2nnnn2CCC(C)C)N2CCN(C)CC2)cc1 (centres undefined)	nt	0.74	-1.4	nt	-0.1	32	nt	nt	nt	nt
CCCCC(CC)CNC(=O)C(Cc1ccccc1)NS(=O)(=O)c1ccc2c(c1)CCC(=O)N2 (centres undefined)	1	0.74	-1.8	0.2	-0.1	-16	-5	-6	-2.3	nt
Cc1nnc2n(-c3ccccc3)c(=O)c3c4c(sc3n12)CC(C)CC4 (centres undefined)	2	0.67	1.5	nt	0.5	-14	nt	nt	nt	nt
C=CCNc1nc(NC(C)(C)CO)nc(OCC)n1	-9	0.69	2.0	nt	-0.4	-19	nt	nt	nt	nt
COc1ccc(NC(=O)CN2CCN(c3ccc(F)cc3)CC2)cc1	-6	0.72	1.4	0.1	-0.1	-4	5	-4	-0.3	i
O=C(NC(Cc1c[nH]c2ccccc12)C(=O)NCc1ccc(F)cc1)OCc1ccccc1 (centres undefined)	-4	0.7	3.8	1.6	-0.3	17	6	5	5.6	i
CCN(CC)CCC(=O)NC(C)(C)Cc1ccc(O)cc1	-2	0.72	2.0	nt	0.3	47	nt	nt	nt	nt
CCOC(=O)CN1CC23C=CC(O2)C(C(=O)NC2CCCCCC2)C3C1=O (centres undefined)	-8	0.78	5.2	-2.4	0.5	-2	3	10	-0.5	i
Cc1cc(N2O[C@H]3C=C[C@@H]2C3)no1	nt	0.73	0.7	-2.6	nt	nt	14	14	1.6	i
CC1CC(C)CN(C(=O)Nc2ccc(Br)cc2)C1 (centres undefined)	-2	0.64	2.4	-4.5	-0.1	4	1	7	0.5	i
CC(=O)c1c(C(C)=O)c(C)n(NC(=O)c2ccccc2O)c1C	1	0.64	-7.5	nt	0.1	0	nt	nt	nt	nt

FGF22 binding, entries above that show a hit.
| mol | Ecoli growth | UCH37 inh | MLL AF4-AF9 inh | rRNA inh HTS | rRNA inh HTS OD600 | rRNA inh HTS RFP | FGF22 binding |
| --- | --- | --- | --- | --- | --- | --- | --- |
| CC(C)(c1cc(Br)c(O)c(Br)c1)c1cc(Br)c(O)c(Br)c1 | nt | nt | nt | -57 | -83 | -17 | + |

Additional compounds
SMILES	Beta cell apopt	Ecoli growth	UCH37 inh	MLL AF4-AF9 inh	A1 inh	T cruzi repl	rRNA inh HTS	rRNA inh HTS OD600	rRNA inh HTS RFP	FGF22 binding
Cc1nc(Cc2nnc(SCc3nc(N)nc(Nc4ccccc4C)n3)o2)cs1	2	0.69	1.5	nt	-0.7	-8	nt	nt	nt	nt
COCCn1c(-c2ccc(F)cc2)nc2oc3cc(OC)ccc3c(=O)c2c1=O	nt	0.64	3.1	-3.0	1.0	6	5	6	0.6	i
CCOC(=O)c1ccc(Oc2nc(NC)nc(OC)n2)cc1	0	0.67	2.3	nt	-0.4	7	nt	nt	nt	nt
O=Nc1ccc(O)c2ncccc12	43	0.4*	11	-1.3	-0.1	22	8	5	6.0	i
COC(=O)C1=C(CCc2ccccc2)NC(=O)NC1c1ccc(Cl)cc1 (centres undefined)	-1	0.7	4.2	-0.6	1.1	17	-8	-1	1.8	i
Cc1ccc(NS(=O)(=O)c2cccs2)nc1	nt	0.67	-28	-2.0	0.8	-8	20	13	0.0	i
Cc1ccc(S(=O)(=O)Nc2ccc(O)c(Sc3ncn[nH]3)c2)cc1	nt	0.68	1.3	-3.2	0.6	1	7	2	4.0	i
CN(C(=O)CCN1C(=O)C2C3C=CC(C3)C2C1=O)c1ccccc1 (centres undefined)	-2	0.68	-0.3	0.7	-0.2	-13	0	10	-1.7	i
CC(C)c1ccc2c(c1)[C@H]1OCC[C@H]1[C@@H](c1cccs1)N2	0	0.69	2.0	nt	-0.2	-1	nt	nt	nt	nt
COc1cc(CCC(=O)OCC(=O)NC(=O)c2ccc(Cl)cc2)cc(OC)c1OC	nt	0.7	-0.1	-0.1	-0.3	-10	1	5	-2.3	i
COC(=O)c1cccc(NC(=O)CSc2nc(C)cc(=O)[nH]2)c1	-5	0.66	4.5	nt	0.5	0	nt	nt	nt	nt
O=C(Nc1ccc(S(=O)(=O)NCc2ccccc2)cc1)c1ccccc1[N+](=O)[O-]	5	0.68	-0.4	1.3	0.7	7	nt	nt	nt	+
Cc1ccccc1N1C(=O)c2ccccc2NC1c1ccncc1 (centres undefined)	1	0.73	-27	nt	0.5	-2	1	5	-2.6	nt
